TRPML1 ag = qHTS for Agonists of the Human Mucolipin Transient Receptor Potential 1 (TRPML1). Mucolipin-1 (Homo sapiens), Q9GZU1. TRPML1-expressing cells, Ca2+ dye fluorescence, FDSS; host cell line not named in the record; reference of the full effect not given here. AID 624414, 2012. activation, % (no concentration beside the values). 0.12% of 410,000 active; in the data active = activation above about 50%; inconclusive = about 30% to 50%; inactive = below about 30%; further: 0% is about no effect; the text of the record puts the active cut at 80%
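In this qHTS format, compounds were pin-transferred onto Ca8-dye-loaded TRPML1-DL cells induced with Tet overnight, and intracellular Ca2+ fluorescence was recorded kinetically for 110 s after a 10 s baseline. A subsequent 4uM final 54-4 (EC80) addition followed by a second 110 s read served as the antagonist phase.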
TRPML1 inh = qHTS for Inhibitors of the Human Mucolipin Transient Receptor Potential 1 (TRPML1); activity change, negative = inhibition, % (no concentration beside the values); TRPML1-inducible cells, Ca2+ dye fluorescence, FDSS; hits give low values; inhibition of EC80 agonist-evoked calcium signal; 0.02% of 390,000 active; AID 624415, 2012; in the data active means activity change below about -50%; inconclusive means about -30% to -50%; inactive means above about -30%;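 further: stimulus is agonist 54-4 at its EC80 concentration; on the % scale 0 is the no-effect control and ±100 the full control effect; compound concentration not given in the record; the text of the record puts the active cut at -80%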
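Tet-induced TRPML1-DL cells loaded with Ca8 no-wash calcium dye were read kinetically on FDSS. Compound addition was followed by EC80 agonist 54-4 (4 uM final); inhibition was read over 110 s.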
Sfp PPTase inh = qHTS Assay for Inhibitors of Bacillus subtilis Sfp phosphopantetheinyl transferase (PPTase) | Biochemical Sfp PPTase activity, qHTS | Potency, µM, without a hit: max response, negative = inhibition, most hits filed as inhibitors | 4'-phosphopantetheinyl transferase ffp (Bacillus subtilis), Q9F4F7 | AID 1490, 2009 | 3.5% of 310,000 active; active means well fitted inhibition curve with a large enough effect; inconclusive means small, poorly fitted or top-dose-only effect, or another doubt; inactive means no such curve, though single readings can be large or run the other way;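 further: the enzyme is Sfp with the accession as filed and its product quenches rhodamine fluorescence; potency means the concentration at half of the fitted maximal effect; 0% = enzyme reaction without inhibitor and -100% = no enzyme wells; top concentration of the series not given in the record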
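Reaction rates are the 30-min fluorescence difference (ex 525, em 598 nm) in wells containing 15 nM Sfp, 5 uM rhodamine-CoA and 12.5 uM BHQ-2-YbbR at pH 7.6 with 10 mM MgCl2.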
ClpP mod = qHTS Assay for Activators of ClpP. ATP-dependent Clp protease proteolytic subunit (Bacillus subtilis (strain 168)), P80244. purified B. subtilis ClpP, FRET peptide cleavage, 20 min. Potency, µM (doses to about 57.5 µM), inactives show at the highest dose activity change, negative = active. 1.9% of 340,000 active. AID 651965, 2013; active = well fitted falling curve with a large enough effect; inconclusive = small, poorly fitted or top-dose-only effect; inactive = no such curve, though single readings can be large or run the other way; further: potency means the concentration at half of the fitted maximal effect; the source files actives as falling curves though it sought activators and does not explain the sign; nearly all actives have a fitted effect of over 65% in size; many hits overshoot -100%
Target sequence (P80244 whole entry, looked up): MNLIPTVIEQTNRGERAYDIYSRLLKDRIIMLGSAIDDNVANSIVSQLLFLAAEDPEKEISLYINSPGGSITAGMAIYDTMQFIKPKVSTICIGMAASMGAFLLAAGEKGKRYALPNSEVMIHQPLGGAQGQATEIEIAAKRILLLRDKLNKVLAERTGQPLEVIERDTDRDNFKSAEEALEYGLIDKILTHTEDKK
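Buffer: 100 mM Tris/HCl pH8, 100 mM KCl, 0.05% low protease BSA, 2.5% glycerol, 0.01% Tween-20. ClpP 10 microg/mL final; 20 min RT; delta FRET normalized to ADEP and DMSO controls.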
Menin MLL FP FL = qHTS Assay for Inhibitors Targeting the Menin-MLL Interaction in MLL Related Leukemias: Competition With Fluorescein Labeled MLL-derived Peptide; Fluorescence polarization, fluorescein-MLL peptide displacement from menin; FP activity change, % at 61.4 µM; 290,000 tested, under 10 active; AID 1766, 2009; inconclusive = falling polarisation curve, or a change in total fluorescence; inactive = total fluorescence flat and polarisation flat or rising; no compound was filed as active; the % refers to the polarisation; negative = inhibition;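 further: % of control where 0% means no effect; inhibitors lower the polarisation; unlabelled MLL peptide was the positive control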
TRPV1 PAM = HTS Assay for Compounds that Act as Potentiators of the Vanilloid Receptor 1 | 0.02% of 320,000 active | AID 540277, 2011 | TRPV1-expressing cells, Fluo-8 calcium influx, capsaicin EC20 potentiation; host cell line not named in the record; control for the full effect not named in the record | potentiation, % at 8.33 µM; active means potentiation above 80%; inconclusive means 30% to 80%; inactive means below 30%; further: 0% is about no effect
Target sequence (Q8NER1 whole entry, looked up): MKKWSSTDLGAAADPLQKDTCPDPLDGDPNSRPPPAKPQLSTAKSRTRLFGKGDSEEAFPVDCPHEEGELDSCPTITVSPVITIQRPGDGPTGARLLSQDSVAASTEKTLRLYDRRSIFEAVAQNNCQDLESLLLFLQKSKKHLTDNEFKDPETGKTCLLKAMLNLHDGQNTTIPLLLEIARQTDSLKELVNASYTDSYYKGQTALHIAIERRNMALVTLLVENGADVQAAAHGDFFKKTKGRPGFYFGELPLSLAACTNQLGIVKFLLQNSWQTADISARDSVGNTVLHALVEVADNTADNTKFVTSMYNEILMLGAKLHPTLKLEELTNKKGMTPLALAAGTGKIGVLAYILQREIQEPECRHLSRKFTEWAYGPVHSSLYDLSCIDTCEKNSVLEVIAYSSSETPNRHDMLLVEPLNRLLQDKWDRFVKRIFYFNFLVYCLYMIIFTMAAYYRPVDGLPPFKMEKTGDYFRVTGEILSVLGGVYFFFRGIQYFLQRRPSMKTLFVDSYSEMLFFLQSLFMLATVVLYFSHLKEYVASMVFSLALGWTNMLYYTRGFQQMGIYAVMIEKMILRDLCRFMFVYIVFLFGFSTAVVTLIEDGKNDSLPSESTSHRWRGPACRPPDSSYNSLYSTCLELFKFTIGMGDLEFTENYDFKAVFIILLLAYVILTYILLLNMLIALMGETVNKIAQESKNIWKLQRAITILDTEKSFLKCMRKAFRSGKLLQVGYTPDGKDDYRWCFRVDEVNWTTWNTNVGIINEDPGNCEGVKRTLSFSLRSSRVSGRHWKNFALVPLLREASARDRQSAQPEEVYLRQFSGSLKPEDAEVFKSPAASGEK
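Cells expressing TRPV1 were dye-loaded with Fluo-8 and read kinetically: 10 s baseline, 3 min after compound (agonist portion), then 2 min after EC20 capsaicin (allosteric enhancer portion). Calcium-bound dye fluorescence at 480/520 nm.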
PINK1 expr mod = A Quantitative High throughput Screen to Identify Chemical Modulators of PINK1 Expression. PINK1 immunofluorescence, high-content cytometry, 24 h. Potency, µM (doses to about 76.6 µM), inactives show at the top dose activation (PINK1 increase), usual class: activators. 0.2% of 410,000 active; active = well fitted activation curve with a large enough effect; inconclusive = small, poorly fitted or top-dose-only effect; inactive = flat fitted curve, though single readings scatter; cell line not stated here;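 further: potency means the concentration at half of the fitted maximal effect; % of control where 0% means no effect; nearly all actives have a fitted effect of over 65% in size; a mitochondrial uncoupler was the plate control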
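Measures PINK1 amount and localization on or inside mitochondria by immunofluorescence. Stable cells get compounds at 5 concentrations for 24 hours before fixation and staining; CCCP controls included.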
The depositor's hits bear a star; ? = inconclusive; . = not tested or not shown; [ ] = remark or other dose.

compound | TRPML1 ag | TRPML1 inh | Sfp PPTase inh | ClpP mod | Menin MLL FP FL | TRPV1 PAM | PINK1 expr mod
O=C(Cc1ccc(Cl)cc1)N1CCc2ccccc2C1 | -1.1 | 23 | . | -2.5% | . | . | 0.0%
COc1ccc(/C=N/NC(=O)c2cc3c(ccc4ccccc43)o2)cc1OC | 0.7 | -5 | 5% | 3.4% | . | 26 | 4.6%
Cc1ccc(NC(=O)COC(=O)C2=COCCO2)cc1 | 0.0 | -6 | 3% | -1.9% | 1.4 | -1 | -0.5%
C(=C\CSc1ncn[nH]1)/CSc1ncn[nH]1 | -1.1 | 2 | 21% | 1.0% | -0.9 | -2 | -1.6%
CC1CCN(S(=O)(=O)c2cc(C(=O)N3CCN(c4ccccc4)CC3)ccc2Br)CC1 | -0.4 | 12 | . | 0.9% | . | . | 0.1%
Cc1cc(S(=O)(=O)Nc2nc(CN3CCOCC3)nc3sc4c(c23)CCC4)ccc1F | -0.1 | -9 | . | 2.0% | . | . | 3.7%
CC(=O)N1CCc2cc(Br)cc(S(=O)(=O)N3CCc4ccccc43)c21 | -0.1 | 10 | ? | . | 3.3 | 4 | 1.9%
COc1cc(C(=O)Nc2ccc3c(c2)nc(C)n3C)cc(OC)c1OC | . | . | 12% | -0.9% | -5.7 | ? | 11%
COc1ccc(CCNC(=O)CCc2c(C)nc3c4c(C)cc(C)nc4nn3c2C)cc1OC | 0.8 | 6 | . | ? | . | . | 7.5%
NS(=O)(=O)c1ccc(NC(=O)c2c(F)cccc2Cl)cc1 | 1.4 | -2 | 6% | 0.7% | 1.7 | 2 | 0.1%
O=C(CCOc1ccccc1)NNC(=O)c1ccccc1 | 1.3 | 53 | . | . | . | . | -2.1%
O=C(O)c1ccc(N2C(=O)CSC2c2cccc([N+](=O)[O-])c2)cc1 (configuration not stated) | 1.4 | -18 | 6% | 2.5% | 0.8 | 0 | -1.3%
O=C(CCNC(=O)c1ccc(Br)cc1)NCCCN1CCOCC1 | 0.4 | -2 | . | -0.4% | . | 0 | 0.1%
CC(OC(=O)Cc1c[nH]c2ccccc12)C(=O)c1ccccc1 (configuration not stated) | 1.3 | 2 | . | 1.0% | . | 23 | -0.2%
CS(=O)(=O)N1CCN(c2nc3ccccc3s2)CC1 | -0.5 | -3 | 11% | -0.3% | 5.8 | 18 | ?
COc1ccc(-c2noc(CCC(=O)N3CCN(c4ccccc4C(F)(F)F)CC3)n2)cc1 | 1.2 | -8 | . | -6.2% | . | . | -0.8%
O=c1c2ccccc2[nH]c(=S)n1CCN1CCCC1 | 0.0 | 9 | 3% | -3.9% | 8.0 | 5 | -1.5%
Cc1n[nH]c(=O)c2c(NC(=O)COC(=O)c3ncc(Cl)c(Cl)c3Cl)oc(C)c12 | 2.4 | 1 | . | 8.9% | . | 0 | -0.2%
CCn1c(=O)c2c(nc3n2CCN3c2ccccc2)n(C)c1=O | -1.4 | -10 | -14% | -2.0% | 1.0 | -24 | -1.3%
CC(C)OC(=O)CC1C(=O)NCCN1C(=S)NC(=O)c1cccs1 (configuration not stated) | 0.3 | 23 | 56µM* | . | -1.8 | -5 | 0.5%
COc1ccc(NC(=O)Cn2c([N+](=O)[O-])cnc2C)c(OC)c1 | 0.1 | 16 | . | -4.0% | . | . | -0.4%
CC(=NO)c1cc(Br)c2cccc3c2c1CC3 | 1.2 | 12 | . | -2.2% | . | . | 1.6%
Cc1ccc(C)c(C(=O)CSc2nnnn2C(C)C)c1 | 0.3 | 14 | -20% | -1.8% | 0.6 | -15 | 2.5%
Cc1ccc(NC(=O)c2c(C)oc3nc(C)nc(N4CCCC4)c23)c(C)c1 | 2.2 | 23 | . | -3.7% | . | . | -6.4%
COCCNc1nc(-c2ccoc2)nc2ccccc12 | . | . | 4% | . | ? | . | -0.7%
Cc1ccc(S(=O)(=O)NCC(C)NS(=O)(=O)c2ccc(C)cc2)cc1 (configuration not stated) | -1.5 | 9 | -7% | -3.3% | 1.2 | 0 | -2.1%
Cc1ccc(N2C(=O)CC(n3nc(C)cc3C)C2=O)cc1 (configuration not stated) | 0.2 | -14 | 11% | -0.3% | -0.6 | 13 | ?
CC(C)(C)n1nnnc1C(c1ccccn1)N(Cc1ccccc1)Cc1ccc(Cl)cc1 (configuration not stated) | -0.2 | -1 | 2% | -3.4% | 1.6 | 0 | 0.1%
COc1cccc(CN(C)CC(=O)Nc2ccccc2C(=O)Nc2ccccc2)c1 | 1.7 | -26 | 22% | . | 1.1 | -9 | 4.9%
O=C(COc1ccc(/C=N/NC(=O)c2cc3ccccc3o2)cc1Br)Nc1ccccc1 | 0.8 | 10 | ? | -25% | 8.1 | . | -2.9%
CCc1ccc(OCC(=O)N2c3ccccc3CCc3ccccc32)cc1 | 3.5 | 33 | -9% | 0.4% | 4.3 | -8 | 14%
CCOC(=O)Cc1c(C)nc2c(-c3ccc(OC)cc3)c(C)nn2c1C | -0.5 | 4 | -4% | 1.2% | 0.6 | -2 | -2.2%
CCOc1ccc(NC(=S)Nc2cc(OC)c(Cl)cc2OC)cc1 | -0.1 | -7 | ? | 0.8% | 4.6 | 1 | 3.8%
Cc1nn(C)c(C(=O)Nc2ccn(Cc3c(F)c(F)cc(F)c3F)n2)c1[N+](=O)[O-] | -0.1 | 28 | -9% | -1.9% | 3.4 | 3 | 3.4%
Cc1cc(C)c2c(=O)[nH][nH]c2n1 | 0.9 | 15 | . | -6.0% | . | . | 5.0%
CC1(C(=O)NS(=O)(=O)c2ccc(C#N)cc2)CCN1C(=O)CC1CCCC1 (configuration not stated) | 0.3 | . | . | -0.2% | . | . | 0.9%
COc1ccc(OC)c(CCNC(=O)c2nc(-c3ccc(Cl)cc3)n3c2CCCCC3)c1 | 1.2 | 7 | . | -7.5% | . | . | 0.8%
CCOc1ccccc1NC(=S)N1CCC(NC(=O)c2ccco2)CC1 | -0.3 | 17 | 23% | . | 0.0 | -17 | 0.1%
COc1cc(NS(=O)(=O)c2ccc(C)cc2C)cc(OC)c1OC | 0.4 | 37 | -3% | 2.2% | 0.0 | 5 | 7.7%
COc1ccccc1CCC(=O)Nc1ccc(OC)c(S(=O)(=O)N2CCOCC2)c1 | 1.0 | -28 | . | 0.5% | . | 1 | 0.0%
CC(=O)Nc1ccc(N(C(=O)Cc2cccs2)C(C(=O)NC2CCCC2)c2ccncc2)cc1 (configuration not stated) | 0.1 | 3 | 9% | . | . | 5 | 0.0%
O=C(CSc1nncn1-c1ccccn1)Nc1cccc(Cl)c1 | -0.5 | 9 | 0% | . | -3.4 | -27 | 0.1%
CC(NCC1COc2ccccc2O1)C(=O)NCc1ccccc1 (configuration not stated) | 0.3 | 2 | ? | . | 0.7 | -3 | 7.7%
CCCS(=O)(=O)NC(=O)C1(C)CCCN(C(=O)c2ccccc2OC)C1 (configuration not stated) | 0.0 | 3 | . | 0.2% | . | . | -0.1%
Cc1cccc2nc(-c3ccco3)c(Nc3ccc4c(c3)OCCO4)n12 | 0.8 | 4 | -1% | ? | -1.0 | 4 | 4.1%
Cc1ccc(NC(=O)CN2CCN(C3CCCCC3)C(=O)C2=O)cc1 | -0.3 | -9 | . | -0.4% | . | . | 0.0%
COC(=O)c1ccc(CNC(=O)C2CCC(=O)N(Cc3ccccn3)C2)cc1 (configuration not stated) | 0.4 | -4 | 19% | -2.4% | -3.4 | -3 | -2.2%
CCCCN(CC)C(=O)CSc1cc(=O)n(C)c2ccccc12 | 1.1 | 6 | 8% | -11% | 0.8 | -19 | -1.4%
Cc1nc2nc(-c3ccc(Cl)cc3Cl)nn2c(C)c1CCC(=O)Nc1ccc(F)cc1 | 1.0 | 30 | . | -7.8% | . | . | -5.0%
COc1ccc(OCC(O)CN2CCCC2)cc1 (configuration not stated) | . | . | -17% | 0.2% | -0.9 | ? | 3.6%
N#Cc1ccc(-c2cccs2)nc1SCC(=O)Nc1cccc(C(F)(F)F)c1 | 0.7 | 9 | . | 3.9% | . | . | 6.4%
CCOc1cc(/C=C(\CC(=O)O)c2nc3ccccc3s2)ccc1OC | -1.1 | 8 | 8% | . | 0.1 | -5 | 0.9%
Cc1ccc2nc(CN3CCN(S(=O)(=O)c4ccc(F)cc4)CC3)oc2c1 | 0.8 | 5 | . | -1.2% | . | . | 1.4%
COc1ccc(CNC(=O)COCc2cc(-c3ccc4c(c3)OCO4)on2)cc1 | 0.3 | -12 | . | -26% | . | . | 0.4%
CC1(C)CC2(CC(C)(C(=O)CSc3nc4ccccc4s3)OC2=O)C(=O)O1 (configuration not stated) | 0.8 | -13 | 1% | 1.7% | 2.7 | -15 | 0.3%[38.3 µM]
COc1ccc(N(C)C(=O)CCS(=O)(=O)c2cccc3nonc23)c(OC)c1 | -0.3 | 12 | 16% | -1.3% | 4.1 | 3 | -0.3%
Cc1ccc(/C=C/C(=O)Nc2cccc3ncccc23)o1 | 0.7 | -2 | 20µM* | -2.9% | ? | . | .
COC(=O)c1ccc(OCC2c3cc(OC)c(OC)cc3CCN2C(=O)C2CC2)cc1 (configuration not stated) | -0.6 | 1 | -12% | -2.0% | -2.2 | -21 | 0.7%[38.3 µM]
N#CC1=C2C=CC=CN2CC1=O | 2.3 | -11 | ? | -17% | ? | 0 | -1.1%
O=C(Nc1ccccc1Oc1ccccc1)c1ccccc1F | -0.9 | -5 | -13% | -2.8% | 5.1 | -9 | 10%

Compounds were not picked by outcome. Share with any hit: about 4.4%.
